# Source: PubChem (ICCB-Longwood Screening Facility, Harvard Medical School)
# S aureus helic: S. aureus DNA helicase inhibition; inhibition, %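 (tested at about 80 µM)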; AID 485395; purified S. aureus helicase, fluorescence unwinding assay; about half of the hits fall short of the stated cut; 120,000 tested, 0.05% active;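 active means both duplicates at 50% or more, or one of them with a favoured structure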;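 further: 0% = mean of negative control wells and 100% = mean of positive control wells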
# MgrA DNA FP: modulators of Staphylococcus aureus MgrA DNA binding; fluorescence polarization; inhibition, %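 (about 10 µg/mL by stock and volumes)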; 84,000 tested, 0.13% active;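 active means above 50% in either of two replicates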;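 further: 0% = protein plus DNA without compound and 100% = DNA alone without protein; higher means less MgrA bound to DNA so lower polarization; one replicate is shown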
# * hit, by the source's call; . = no result given.
SMILES,S aureus helic,MgrA DNA FP
NC1=NC2=C(CCCC2)C2(CCCCC2)S1,6,0.7
Cc1ccc2c(c1)C(c1ccccc1)N(C(=O)c1ccc(C)c(C)c1)CC(=O)N2 (stereo unspecified),15,-1.8
O=C(C1CC(=O)N(C2CCCCC2)C1)N1CCOCC1 (stereo unspecified),22,2.6
CCCCCOC(=O)C1=C(C)NC(=O)NC1c1cc2c(cc1Br)OCO2 (stereo unspecified),.,-1.8
CCC(CC)NC(=O)c1ccc(OCc2c(C)noc2C)c(OC)c1,-7,.
O/N=C/c1nc(-c2ccccc2)n2ccccc12,4,.
Cc1cc(C(F)(F)F)cc(N(C)NC2OC(=O)c3ccccc32)n1 (stereo unspecified),.,0.4
CCc1noc(C)c1C(=O)Nc1ccc(N(C)C)cc1,3,.
O=C(O)CN(CCN(CC(=O)O)CC(=O)O)CC(=O)O,.,11
Cn1nc(NC(=O)c2ccc(CSc3ccc(Cl)cc3)o2)c2c(F)cccc21,-10,.
CCOC(=O)c1nc(C)sc1-c1ccnn1S(=O)(=O)c1cccc(Cl)c1,8,.
CCn1c2ccc(F)cc2c2nnc(NN)nc21,17,0.7
Nc1nc(N)c(N)c(=O)[nH]1,.,2.1
C=CCN(Cc1ccc(Cl)s1)c1ncnc2sccc12,6,.
COc1ccc(/C=C\C(=O)Nc2c3c(nn2-c2cccc(Cl)c2)CSC3)cc1OC,5,1.8
O=C1c2ccccc2C(=O)N1CCSc1nnc(Cc2cccs2)n1C1CCCCC1,13,.
COc1ccc(C2C(C(=O)Nc3ccc(C(F)(F)F)cc3)c3ccccc3C(=O)N2C)cc1 (stereo unspecified),7,1.7
O=C1c2ccccc2C(=O)c2c1n[n+]([O-])n2-c1ccc(F)cc1,-7,1.9
CC1CCN(S(=O)(=O)N2CCC(C(=O)NCCC3=CCCCC3)CC2)CC1,-12,.
Cc1ccc([N+](=O)[O-])c2c1NC(c1ccc(Br)cc1)C1CC=CC21 (stereo unspecified),.,2.0
O=C(O)CNC(=S)N(Cc1cccs1)C1CCCC1,-11,.
NC(=O)c1ccccc1OCC(=O)N1CCCC1c1ccc2c(c1)OCCCO2 (stereo unspecified),-10,.
C/C(N)=C(/C#N)C(=O)CSc1nnc(N)s1,-12,.
Nc1ccc(C(=O)NCc2ccccc2)cc1,19,3.0
O=C(NCc1ccccn1)c1cccc(Cl)c1,.,1.5

# Structural class, the compounds so far containing an aryl methoxy group
SMILES,S aureus helic,MgrA DNA FP
CCC(CC)NC(=O)c1ccc(OCc2c(C)noc2C)c(OC)c1,-7,.
COc1ccc(/C=C\C(=O)Nc2c3c(nn2-c2cccc(Cl)c2)CSC3)cc1OC,5,1.8
COc1ccc(C2C(C(=O)Nc3ccc(C(F)(F)F)cc3)c3ccccc3C(=O)N2C)cc1 (stereo unspecified),7,1.7

# The list goes on:
SMILES,S aureus helic,MgrA DNA FP
O=C(NCCCN1CCN(c2nccc(C(F)(F)F)n2)CC1)c1cccs1,.,0.5
S=C1NN(c2ccccc2)C2=C(CCC2)S1,4,-1.1
N#C/C(=C\c1c(F)cccc1Cl)c1ccc([N+](=O)[O-])cc1,.,4.6
COc1cc(/C=C/C(=O)OCC(=O)Nc2ccc(NC(C)=O)cc2)ccc1O,-1,.
CC(C)(C)n1cnc2cc(NS(=O)(=O)c3ccccc3)ccc21,7,-2.7
O=C(NC1CCN(C(=O)NC2CCCCC2)CC1)c1ccc(F)cc1,-3,0.2
O=S(=O)(Nc1ccc(Oc2ccc(Cl)cc2C2CCCCC2)nc1)c1cccc2nonc12,-7,.
COc1cccc(-c2nnc(SCC(=O)N3CCCCC3C)o2)c1 (stereo unspecified),-2,.
Nc1ccccc1C(=O)NCCc1c[nH]c2ccccc12,.,-2.3
Cn1cc(CC(=O)N2CCN(c3ccc(Cl)cc3)CC2)c2ccccc21,2,1.4
O=C(c1cccc(S(=O)(=O)N2CCc3ccccc3C2)c1)N1CCN(c2ccc(O)cc2)CC1,-7,.
N#CC(C(=O)NCCc1ccccc1)c1nc2ccccc2nc1N1CCCCCC1 (stereo unspecified),-28,.
CCOC(=O)N1CCN(c2cnn(-c3nc4ccccc4s3)c(=O)c2Cl)CC1,-14,.
NC(=O)C(c1ccccc1)c1ccc(C(=O)c2ccccc2)cc1 (stereo unspecified),.,0.5
NC(=O)COC(=O)c1ccc(-c2ccc(C(=O)OCC(N)=O)s2)s1,-4,.
O=C1C2C=NNC2C(=O)N1Cc1ccccc1 (stereo unspecified),-6,2.4
COC(=O)CCC(CCC(=O)OC)(C(=O)OC)C(=O)OC,.,-3.6
NCc1nnc2ccccn12,4,.
O=C(c1ccc(-n2cccn2)cc1)N1CCCCC1c1nc2ccccc2s1 (stereo unspecified),-16,.
N#Cc1c2ncnc(-c3ccccc3)c2n2ccccc12,-105,.
Clc1ccc2nnc(Cc3ccccc3)n2n1,4,.
O=C(NCc1cccs1)C1CCN(c2ccc(S(=O)(=O)N3CCOCC3)cc2Cl)CC1,13,-0.8
CC1CN(Cn2nc(-c3cccc(S(=O)(=O)N(C)C)c3)n(-c3ccc(F)cc3)c2=S)CC(C)O1 (stereo unspecified),-12,.
COc1ccc(C(=O)NC(Cc2ccccc2)C(=O)N2CCCCC2)cc1 (stereo unspecified),10,4.0
Cc1csc(NC2CCCCC2)[n+]1C,.,-2.2

# Following part
SMILES,S aureus helic,MgrA DNA FP
O=C(CSc1nccn1-c1cccc(Cl)c1)NC1CCCC1,3,.
COc1ccc(-n2c(O)c(C3=c4cc(Br)ccc4=NC3=O)sc2=S)cc1,.,-0.6
COc1ccc(N2C(=N)C(C)(C)NC2=O)cc1,6,0.4
COc1ccc(N(CC(O)CN2CCCC2)S(=O)(=O)c2ccccc2)cc1 (stereo unspecified),4,-1.1
Cc1cc(Sc2nnc(/N=C/N(C)C)s2)c2ccccc2n1,.,-0.3
COc1ccc(Cl)cc1C(=O)Nc1ccc(NC(=O)c2ccco2)cc1,5,-3.1
CCC(C)N=C1CC(C)(C)CC(=O)/C1=C(\O)Cc1ccccc1 (stereo unspecified),-3,-1.6
COc1ccc(-c2noc(CNS(=O)(=O)c3ccccc3)n2)cc1,21,.
Cc1ccc(C)c(S(=O)(=O)N/N=C/c2ccc3c(c2)OCCO3)c1,-3,.
CC1CC(C)CN(C(=O)CCCc2c[nH]c3ccccc23)C1 (stereo unspecified),25,.
FC(F)(F)c1cccc(NC(=S)Nc2ccc(Cl)c(Cl)c2)c1,.,2.1
Cc1sc2nc3n(c(=O)c2c1C)N=C(c1ccc(F)cc1)CS3,.,-1.1
O=C(Nc1ccc(-n2cnnn2)cc1)c1cccc(S(=O)(=O)N2CCc3ccccc3C2)c1,2,.
CC1=C(C)CS(=O)N(S(=O)(=O)c2ccc(C)cc2)C1 (stereo unspecified),5,.
CCC(C)N1CCC(N)=NC1=O (stereo unspecified),1,.
CCOC(=O)CSCc1cn2cc(Cl)ccc2n1,12,0.9
CCn1c2ccccc2c2nnc(NCCOc3cccc(C(F)(F)F)c3)nc21,6,4.7
CN(Cc1cccc(O)c1)C1CCCCC1,19,1.2
Clc1ccc(CCc2ccc(Cl)cc2)cc1,.,1.6
COc1ccc(OCC(=O)Nc2cc3c(cc2C(=O)O)OCCCO3)cc1,-5,.
CC1CCN(S(=O)(=O)c2ccc(/C=C/C(=O)O)cc2)CC1,-21,.
N#CCCN(C(=O)C1CCCCC1)c1ccccc1F,-34,-4.2
O=C(CSc1nnnn1-c1ccccc1)N/N=C/c1ccc(Cl)cc1Cl,18,.
CC1(C)C2CCC(C2)C1(C)NC(=O)CNCc1ccco1 (stereo unspecified),5,-1.4
FC(F)(F)c1cccnc1NCCNc1ncnc2scc(-c3ccccc3)c12,.,-0.2

# More results
SMILES,S aureus helic,MgrA DNA FP
COCCN1Cc2cccc(C(=O)Nc3ccc(OC)c(Cl)c3)c2C1=O,11,.
COc1cccc(NC(=O)c2ccnc(N3CCC(C(=O)NCCc4ccccc4)CC3)c2)c1,4,.
CC(=O)Oc1cc2c(cc1Cl)C(C)(C)CC(C)(c1cc(Cl)c(OC(C)=O)cc1OC(C)=O)O2 (stereo unspecified),2,-0.6
CCOC(=O)c1c(O)cc(C)[nH]c1=O,.,-3.0
CC1(C)S[C@@H]2[C@H](NC(=O)[C@H](N)c3ccc(O)cc3)C(=O)N2[C@H]1C(=O)O,.,-9.5
Cc1cc(/C=N/n2cnnc2)c(C)n1-c1cccc(C(F)(F)F)c1,6,1.9
NC(c1ccc2c(c1)CCCC2)c1cccs1 (stereo unspecified),11,.
c1coc(CCC2NCCn3cccc32)c1 (stereo unspecified),6,0.8
Cc1c(C(=O)O)sc2nc[nH]c(=O)c12,-11,-5.4
O=C(O)CN1CCN(Cc2ccccc2)C1=O,6,-2.1
CCN(CC)C(=O)/C(C#N)=C/c1cn(-c2ccccc2)nc1-c1ccccc1,-7,.
CC(C)c1nc2sc3c(c2c(=O)n1N)CC(C)(C)OC3,0,-0.8
Cc1ccc(C=Nc2ccc(F)c(F)c2)o1,-38,0.3
Cc1ccc(S(=O)(=O)Nc2ccc(C(=O)Nc3nccs3)cc2)cc1,15,.
COC(OC)c1ccc(C#N)c(SC)n1,.,-1.4
CC(=O)N1CCC2(CC1)CC(=O)c1cc(OCC(=O)O)ccc1O2,8,-0.8
Cn1c(=O)c2c(SCC(N)=O)nc(CC(C)(C)C)nc2n(C)c1=O,5,.
Cn1c(=O)c2cc(C(=O)NCc3ccco3)sc2c2ccc(Cl)cc21,-39,.
COc1ccc(-c2nnc(SCC(=O)NCCC3=CCCCC3)o2)cc1,23,.
Nc1cc(=O)[nH]c(=S)n1-c1ccccc1,2,0.8
Cc1c(Cl)cccc1NC(=S)N(C)CCC#N,9,.
Clc1cccc(N2CCN(c3ncnc4[nH]ncc34)CC2)c1,-7,.
COc1ccc(/C(C#N)=C/c2c(Cl)cccc2Cl)cc1,.,0.9
CC(C)c1ccccc1OCC(=O)O,-6,-2.1
CCc1ccc(NC(=O)c2ccnc(C(C)(C)C)c2)cc1,5,0.7

# Profiles, looked up by structure.
# Profile of COc1ccc(/C(C#N)=C/c2c(Cl)cccc2Cl)cc1 : S aureus helic: .; MgrA DNA FP: 0.9
# Profile of CC(C)c1ccccc1OCC(=O)O : S aureus helic: -6; MgrA DNA FP: -2.1

# The list goes on:
SMILES,S aureus helic,MgrA DNA FP
COC(=O)Nc1ccc(S(=O)(=O)N2CCN(CCN3C(=O)C4C5C=CC(C5)C4C3=O)CC2)cc1 (stereo unspecified),.,1.2
COc1ccc2ncc(C(=O)N3CCOCC3)c(Cl)c2c1,1,1.9
COc1ccc(/C=N/c2nc3ccccc3n2C)cc1OC,13,1.3
CC(C)C1NC(=S)N(c2ccccc2)N1 (stereo unspecified),5,-1.0
N#CC1=C(N)SC(N)=C(C#N)C1c1cccs1,-80,21
O=C(CN1CCN(c2ccc(O)cc2)CC1)Nc1cc(C(F)(F)F)ccc1N1CCOCC1,1,.
O=C(NC1CCCCC1)C(c1ccccn1)N(Cc1ccc2c(c1)OCO2)C(=O)C(F)(F)F (stereo unspecified),11,-1.8
C(=N\N1CCOCC1)/c1cccc(/C=N/N2CCOCC2)c1,19,.
CCCNS(=O)(=O)c1ccc(NC(=O)c2ccncc2)cc1,-11,.
O=C1/C(=C/c2ccc(F)cc2)COC/C1=C\c1ccc(F)cc1,.,-2.0
Nc1scc[n+]1CC(=O)N1CCCc2ccccc21,-8,-2.3
Cc1cccc(N2C(=O)/C(=C3/C(=O)N(CC(=O)O)c4ccccc43)SC2=S)c1C,17,4.6
CN(CC(=O)Nc1ccc(N2CCOCC2)cc1)c1ncnc2sccc12,-10,.
O=C(CCc1c[nH]c2ccccc12)NCC(F)(F)F,4,.
Cc1cc(=O)oc2cc(OCC(=O)N3CCCC(C)C3)ccc12 (stereo unspecified),7,-1.8
O=C(NCc1cn2ccccc2n1)c1cc(F)c(F)c(F)c1F,6,-2.4
C[N+]1(CC(=O)OCCCc2ccccc2)CCOCC1,8,0.3
O=C(COc1ccc(-c2nnco2)cc1)NC1CCS(=O)(=O)C1 (stereo unspecified),-2,.
NC(=NC(=O)c1ccc(Cl)cc1)c1cccs1,.,-1.4
O=C(O)c1cccc(-c2ccc(CO)o2)c1,13,.
CSc1nnc(SC2=CC(=O)CC(c3ccccc3)C2)s1 (stereo unspecified),.,-2.2
O=c1c2ccccc2c(-c2nnc(SCc3ccc(F)cc3)o2)nn1Cc1ccccc1,2,.
O=S(=O)(c1ccccc1)N1CCCC1c1cccs1 (stereo unspecified),.,0.4
CCN(CC)C(=O)C1=CC(c2ccc(OC)cc2)=NS(=O)(=O)N1C,9,3.8
CC(C)c1ccc2nc(-c3ccc(N)cc3)[nH]c2c1,14,.
CCC(=O)Oc1ccc(C(=O)Nc2nccs2)cc1,2,0.4
Cn1c(-c2ccc(C(C)(C)C)cc2)n[nH]c1=S,-40,.
N#CC(CC(=O)c1ccccc1)c1ccccc1 (stereo unspecified),7,1.9
CN(C)C(=O)c1ccccc1C(=O)N(C)C,7,-7.5

# 5 entries picked at random from the list so far, as already listed:
SMILES,S aureus helic,MgrA DNA FP
Cc1cccc(N2C(=O)/C(=C3/C(=O)N(CC(=O)O)c4ccccc43)SC2=S)c1C,17,4.6
CC(C)c1ccc2nc(-c3ccc(N)cc3)[nH]c2c1,14,.
CCC(=O)Oc1ccc(C(=O)Nc2nccs2)cc1,2,0.4
O=C1/C(=C/c2ccc(F)cc2)COC/C1=C\c1ccc(F)cc1,.,-2.0
O=C(NCc1cn2ccccc2n1)c1cc(F)c(F)c(F)c1F,6,-2.4

# A portion of the library; rates above refer to the full screens.
